VACV mCherry inh: vaccinia inhibition (mCherry reporter); actives 0.63% (n = 310,000); Vaccinia virus mCherry reporter infection, fluorescence; about a quarter of the inactives have no number; Potency, µM (highest dose often 36.5 µM), without a hit: top-dose activity change, negative = inhibition, usual class: inhibitors; active = well fitted inhibition curve with a large enough effect; inconclusive = small, poorly fitted or top-dose-only effect; inactive = no such curve, though single readings can be large or run the other way; tested in A549 cells; note: nearly all actives have a fitted effect of over 35% in size; inactives centre near -10
Vaccinia Venus: vaccinia inhibition (Venus reporter); Potency, µM (top dose mostly 36.5 µM), without a hit: at the top dose activity change, negative = inhibition, hits mostly inhibitors; Vaccinia virus Venus reporter expression, fluorescence; actives 0.46% (n = 330,000); active means well fitted inhibition curve with a large enough effect; inconclusive means small, poorly fitted or top-dose-only effect; inactive means no such curve, though single readings can be large or run the other way; tested in A549 cells; note: nearly all actives have a fitted effect of over 30% in size; inactives centre near -10
* hit, by the source's call; i = inactive; u = inconclusive; x = not tested or not shown; & = joins results of further samples; [ ] = dose if it differs, or a comment. % is set by controls: 0 for no effect and ±100 for the full control effect; potency is the fitted concentration of half-maximal effect.

SMILES	VACV mCherry inh	Vaccinia Venus
CC1=C(C(=O)OC2CCCC2)C(c2ccccc2C(F)(F)F)CC(=O)N1 (stereo not drawn)	-9.6%	-12.4%
CCCCC(=O)N/N=C/c1c(O)n(C2CC2)c(=S)[nH]c1=O	-4.3%	0.7%
CCCNC(=O)c1cccc(COCC(F)(F)C(F)F)c1	i	-1.7%
CC(C)CC(=O)Nc1nnc(SCC(=O)Nc2nccs2)s1	-22.3%	-7.5%
CC(C)Cc1ccccc1S(N)(=O)=O	i	-5.8%
N#Cc1cccc(NC(=O)C2CCN(c3cnccn3)CC2)c1	3.3%	-3.2%
CN(C)S(=O)(=O)c1ccc(NC(=O)CN2CCCC2c2ccc3c(c2)OCCCO3)cc1 (stereo not drawn)	-21.2%	-19.4%
Cc1ccc(C)c(OCC(=O)Nc2ccccc2C(=O)NC2CC2)c1	-6.3%	-9.9%
Cn1c(NCc2cccnc2)nc2cc(-c3cccc(C(F)(F)F)c3)sc2c1=O	-15.4%	-16.6%
N/C(CC(=O)Nc1cc(C(F)(F)F)ccc1Cl)=N\O	i	-12.2%
Oc1ccccc1C1=NCCNC(C(F)(F)C(F)F)=C1	i	-5.6%
CCCCn1c(N)c(N(CC(C)C)C(=O)c2ccc(-c3ccc(C(C)=O)cc3)o2)c(=O)[nH]c1=O	-14.4%	-9.1%
CCCCCCCCCn1c2c(c(=N)c3c1CCC3)CCC2	u	u
Cc1occc1C(=O)Nc1ccc(OCc2ccccc2)cc1	i	-12.8%
CCOC(=O)c1c(C)nc(C)c(C(=O)OCC)c1-c1cccc(N)c1	i	-11.3%
C[C@H](CO)N1C[C@H](C)[C@@H](CN(C)S(=O)(=O)c2cccs2)Oc2c(NC(=O)C3CC3)cccc2C1=O	i	-8.7%
CC(=O)Nc1ccc(OS(=O)(=O)c2c(C)cc(C)cc2C)cc1	-10.7%	-22.1%
CCS(=O)(=O)Nc1cc(C(=O)N2C[C@@H](C)O[C@@H](C)C2)c2c(c1)nc(-c1ccccc1)n2C	i	-12.5%
CC1=C(C(=O)OCc2ccccc2)C(c2cccc(Cl)c2Cl)NC(=O)N1CCCCCC(=O)O (stereo not drawn)	-11.5%	-4.8%
Cc1ccc(S(=O)(=O)N2Cc3ccccc3CC2C(=O)Nc2ccc3c(c2)OCO3)cc1 (stereo not drawn)	i	-8.6%
c1ccc(COc2cccc(CN3CCN(c4ccccn4)CC3)c2)cc1	-25.9%	-9.9%
COCCNC(=O)NC12CC3(C)CC(C)(CC(C)(C3)C1)C2	i	-7.2%
Cc1ccc2c(=O)c(C(=O)c3ccc(F)cc3)cn(CC(=O)NC3CCCCC3)c2n1	-12.9%	-11.0%
Cc1cc(NC(=O)COC(=O)CCNS(=O)(=O)c2c(Cl)cccc2Cl)no1	-23.9%	-6.9%
COc1cccc(-c2ccc3c(N)c(C(=O)Nc4ccc(Cl)cc4F)sc3n2)c1	-29.7%	-20.4%
Cc1ccc[n+](-c2nc3ccccc3nc2[N-]S(=O)(=O)c2ccccc2)c1	i	-0.5%
Cc1ccc(NS(=O)(=O)c2ccc3c(c2)CCCN3C(=O)C2CCC2)c(C)c1	-14.8%	-24.0%
CNC(=O)CSc1nnc(COc2ccc(Cl)cc2)n1CCOC	-13.1%	-7.7%
NC(=O)NC(=O)COC(=O)c1cccc(NS(=O)(=O)/C=C/c2ccccc2)c1	-9.4%	-12.4%
CN1C2CCC1CC(=NO)C2	5.0%	3.4%
CN1CCN(S(=O)(=O)c2cccc3nsnc23)CC1	-1.0%	5.3%
COc1ccc(OC)c(NC(=O)CSc2nccn2-c2cc(C)cc(C)c2)c1	-16.5%	-12.7%
CCn1c(O)c(/C=N/N=C/c2ccc(OC)cc2)c2cc(C3=NNC(=O)CC3)ccc21	-5.8%	1.4%
Cc1nc(C)c(Oc2ccc(Cl)cc2Cl)c(=O)[nH]1	-18.1%	-11.7%
Cc1cc(NC(=O)C(C)SCC(=O)Nc2ccc(C(=O)OC(C)C)cc2)no1 (stereo not drawn)	-1.3%	-24.0%
CCN(C(=O)COC(=O)C1CCN(S(=O)(=O)c2ccc3c(c2)OCCO3)CC1)C1CCCCC1	i	-11.5%
CC(=O)NN1C(=O)/C(=C\c2ccc(Cl)cc2)SC1=S	u	4.7%
Fc1ccc(C2CCCN2Cc2nc(-c3cnccn3)no2)cc1 (stereo not drawn)	i	-2.9%
CC(C)(C)c1ccc(Oc2ccc(NC(=O)C3CC=CCC3C(=O)O)cc2)cc1 (stereo not drawn)	-23.7%	-28.6%
COc1ccccc1-c1nnc(SCc2ccccn2)n1C	-12.6%	-8.5%
Cc1oc(-c2ccccc2NC(=O)C2CCCO2)nc1CNC(=O)c1cc(Cl)ccc1F (stereo not drawn)	-10.1%	-2.7%
Cc1c(C(=O)NCCc2ccc(S(N)(=O)=O)cc2)cccc1[N+](=O)[O-]	u	-29.2%
COc1ccc(COC(=O)CCNC(=O)c2ccc(Cl)cc2)cc1	i	-10.5%
COc1ccc(S(=O)(=O)Nc2cc3c4c(c2)CCN4C(=O)CC3)cc1C	-14.2%	-7.5%
O=[N+]([O-])c1ccc2c(c1N1CCCCC1)=NC1(CCCCC1)[N+]=2[O-]	i[7.34 µM]	-5.6%[7.34 µM]
CCc1ccc(C2C(C#N)=C(N)Oc3n[nH]c(CC(=O)OC)c32)cc1 (stereo not drawn)	x	-2.0%
CC(C)C1N=C2c3ccccc3N=C(SCc3cc(=O)n4cc(Cl)ccc4n3)N2C1=O (stereo not drawn)	-5.8%	-4.8%
CCCNC(=O)c1ccc(-c2nc3ccccc3s2)s1	-11.8%[1.46 µM]	-23.4%

Rewritten with each value named: two of the compounds above
Cc1oc(-c2ccccc2NC(=O)C2CCCO2)nc1CNC(=O)c1cc(Cl)ccc1F (stereo not drawn)
  VACV mCherry inh: -10.1% | Vaccinia Venus: -2.7%
CC(C)C1N=C2c3ccccc3N=C(SCc3cc(=O)n4cc(Cl)ccc4n3)N2C1=O (stereo not drawn)
  VACV mCherry inh: -5.8% | Vaccinia Venus: -4.8%

New compounds follow:
SMILES	VACV mCherry inh	Vaccinia Venus
CN1CCN(C2=Cc3ccccc3Sc3cc(F)c(Cl)cc32)CC1	u	u
CC(Oc1ccccc1)C(=O)N1CCN(c2ccc(N3CCOCC3)nn2)CC1 (stereo not drawn)	-2.3%	-13.1%
COc1ccc(OC)c(NC(=O)c2nnn(CCc3ccccc3)c2N)c1	-7.7%	-0.3%
CN(CCN1CCc2ccccc2C1)Cc1nc(-c2ccc3c(c2)OCO3)no1	-13.3%	-7.9%
Cc1cc(C)nc(NS(=O)(=O)c2ccc(NC(=O)c3snnc3C)cc2)n1	i	-12.4%
CC1Cc2ccccc2N1C(=O)CCn1c(=O)oc2ccccc21 (stereo not drawn)	-0.6%	-4.9%
CNC(=S)N/N=C/C1=CCC2CC1C2(C)C (stereo not drawn)	-30.0%	-12.2%
CCOc1ncccc1C(=O)OCC(=O)Nc1ncc(C(F)(F)F)cc1Cl	x	-5.1%
CC(=O)c1c(C)[nH]c(C(=O)Nc2cccc(C(F)(F)F)c2)c1C	u	u
COC(=O)c1ccc(Cn2nnc3c(=O)[nH]c(C4CCCN(S(=O)(=O)c5ccccc5Cl)C4)nc32)cc1 (stereo not drawn)	i	-5.8%
COc1ccc(NC(=O)NCCN2C(=O)C3C4C=CC(C4)C3C2=O)cc1 (stereo not drawn)	-2.6%	3.9%
Cn1c(=O)c2c(-c3ccccc3)n(-c3ccccc3S)cc2n(C)c1=O	-14.7%	1.0%
CCc1csc(CCNC(=O)C2CCC(=O)N(Cc3ccccc3F)C2)n1 (stereo not drawn)	-12.7%	-8.8%
COc1ccc(SC[C@H](Cc2ccccc2)N2CCN(CCc3ccccc3)CCC2=O)cc1	-12.6%	-29.7%
C=CCN=C1N[C@@H](c2ccccc2)C(C(=O)OC)=C(C)N1CC	-9.0%	-2.6%
O=C(c1ccccc1)c1cn[nH]c1-c1ccccc1O	x	-13.2%
CC(C)c1ccccc1NC1=CC(=O)CC(C)(C)C1	i	-12.3%
CCN(CC)C(=O)N1CCN(S(=O)(=O)c2c(C)cc(C)cc2C)CC1	i	-13.6%
CN(CC(=O)Nc1ccccc1Br)C(=O)c1ccc(COc2ccccc2)cc1	-14.0%	-3.6%
Nn1c(SCc2ccccc2)nnc1C1CCCCC1	i	-1.5%
CN1CCN(c2ccc(S(=O)(=O)N3CCCCC3)cc2NC(=O)c2ccc(F)cc2F)CC1	u	-23.8%
O=C(COCc1cc(-c2ccc3c(c2)OCO3)on1)N1CCN(c2ccc(F)cc2)CC1	-23.5%	-9.6%
CC1=CC(C)(C)N(C(=O)CCl)c2cc(C)ccc21	-8.1%	-9.7%
Cc1ccnc2nc(C(=O)Nc3ccc(N4CCOCC4)cc3)nn12	x	-10.0%
COc1ccc(CC(=O)OCC(=O)Nc2ccc(Cl)cc2C)cc1	-17.3%	-8.9%
Cc1cc(C)c(S(=O)(=O)Nc2ncn[nH]2)cc1C	-8.5%	2.8%
CC(C)NCC(O)COc1ccc(CC(N)=O)cc1 (stereo not drawn)	-8.7%&-9.8%	-15.2%&-15.8%&-12.6%
COc1ccc(-n2nnnc2SC(C)C(=O)NCC(=O)Nc2ccc(F)c(F)c2F)cc1 (stereo not drawn)	1.1%	6.1%
CCNC(=O)c1cnc2c(-c3ccccc3)c(C)nn2c1C	-9.1%	-1.3%
CCn1c(SCc2nc3ccccc3c(=O)[nH]2)nnc1-c1cccnc1	i	-9.1%
COc1ccc([C@@H]2[C@@H]3C(=O)N(C(C)(C)C)C(=O)[C@@H]3[C@]3(Cc4ccccc4)C(=O)N(c4cccc(C)c4)C(=O)N23)cc1	i	-19.7%
CCOc1cc(CNC2CCCC2)cc(Cl)c1OCc1ccc(F)cc1	u	u
Cc1cc(N=Cc2cc(Cl)ccc2O)no1	-13.8%	-12.7%
O=C(NCc1ccco1)c1cccc(NS(=O)(=O)c2ccccc2F)c1	-6.7%	-4.5%
CSc1ccc(CN2CCC(n3nccc3NC(=O)CCCc3ccccc3)CC2)cc1	-23.4%	-25.1%
CCN1C(=O)C(c2ccc(O)cc2)(c2ccc(O)cc2)c2ccccc21	-36.4%	-17.9%
Nc1cc(C(=O)OCC(=O)NNC(=O)c2ccccc2)ccc1Cl	-21.5%	-14.5%
COc1ccccc1NC(=O)N(CCCN1CCOCC1)Cc1cc2cc3c(cc2[nH]c1=O)OCO3	x	-29.7%
O=C(CN1CCN(S(=O)(=O)c2ccccc2)CC1)NC(=O)NC1CCCCC1	-26.2%	-11.7%
O=C(Cn1c(=O)oc2ccccc21)Nc1nc(-c2ccc(Br)cc2)cs1	-16.5%	-11.9%
CC(=O)c1cccc(NC(=O)C2CCN(c3ncnc4c3nc3n4CCCCC3)CC2)c1	-9.4%	-8.1%
CCOC(=O)C1CCN(C(=O)C2(NC(=O)Nc3ccc(F)cc3F)CCCCC2)CC1	-9.0%	-5.0%
S=c1[nH]nc(Nc2cccc3ccccc23)s1	-13.2%[7.34 µM]	-1.8%[7.34 µM]
O=C1Nc2ccccc2N=C(c2ccccc2)c2ccccc21	-14.4%	-2.7%
COc1ccccc1CNC(=O)c1c(N)n(CCCN2CCOCC2)c2nc3ccccc3nc12	12.6µM*	u
Cc1ccc(S(=O)(=O)N(CC2CO2)c2ccccc2[N+](=O)[O-])cc1 (stereo not drawn)	-5.5%	-8.1%
CCn1c(SCC(=O)NCC(=O)Nc2ccc(F)cc2)nnc1-c1ccncc1	-9.6%	-2.2%
CN1C(C(=O)Nc2ccc(F)cc2F)=CC(c2ccco2)=NS1(=O)=O	-8.8%&-6.2%	-5.2%&5.1%

Rewritten with two lines to a compound: seven of the compounds above.
The line under a structure holds: VACV mCherry inh | Vaccinia Venus
COc1ccccc1CNC(=O)c1c(N)n(CCCN2CCOCC2)c2nc3ccccc3nc12
  12.6µM* | u
CCOC(=O)C1CCN(C(=O)C2(NC(=O)Nc3ccc(F)cc3F)CCCCC2)CC1
  -9.0% | -5.0%
Nc1cc(C(=O)OCC(=O)NNC(=O)c2ccccc2)ccc1Cl
  -21.5% | -14.5%
O=C1Nc2ccccc2N=C(c2ccccc2)c2ccccc21
  -14.4% | -2.7%
COc1ccccc1NC(=O)N(CCCN1CCOCC1)Cc1cc2cc3c(cc2[nH]c1=O)OCO3
  x | -29.7%
CCn1c(SCC(=O)NCC(=O)Nc2ccc(F)cc2)nnc1-c1ccncc1
  -9.6% | -2.2%
CN1C(C(=O)Nc2ccc(F)cc2F)=CC(c2ccco2)=NS1(=O)=O
  -8.8%&-6.2% | -5.2%&5.1%

Remaining list, next part:
SMILES	VACV mCherry inh	Vaccinia Venus
CCOC(=O)Cn1nc(C)n(-c2cccc(Cl)c2)c1=O	-3.7%	-15.3%
O=C(NC1CCN(C(=O)NCc2ccccc2)CC1)c1ccc(F)cc1	-10.7%	0.0%
Cn1cc(CN2CCC(C(O)c3cccs3)CC2)c(-c2cccc(Cl)c2)n1 (stereo not drawn)	i	-14.2%
COc1cccc(CC(=O)N2CCC(n3nccc3NC(=O)C3CC3)CC2)c1	-9.2%	1.7%
O=C(CNS(=O)(=O)c1ccc2ccccc2c1)Nc1ccc(F)c(F)c1F	-21.7%	-14.7%
CCn1c(COc2ccc(C)cc2)nnc1SCC(=O)NCc1ccco1	-12.8%	-15.4%
COc1ccc(/C=C(\NC(=O)c2ccc([N+](=O)[O-])cc2)C(=O)NCCCn2ccnc2)cc1	-12.2%	-4.6%
Nc1ncnc2c1ncn2[C@@H]1O[C@H](CNC(=O)[C@@H](N)COCc2ccccc2)[C@@H](O)[C@H]1O	i	-7.9%
Cc1c(C)c(C)c(S(=O)(=O)NCCc2ccncc2)c(C)c1C	-29.0%	-25.3%
CNC(=O)C1CCC(Cn2c(=O)c3sccc3n(CC(=O)Nc3cc(F)ccc3F)c2=O)CC1 (stereo not drawn)	-9.0%	-9.9%

Screening data (PubChem BioAssay)
